# Bioassay records as filed in PubChem BioAssay.
# HNF4A DNA FP: change in binding of human HNF4A to DNA, primary screen, biochemical, fluorescence polarization, FITC-DNA | activity change, % at 10 µM | AID 1224865, 2016 | 1 h | 360,000 tested, 0.3% active | Hepatocyte nuclear factor 4-alpha (Homo sapiens), P41235; in the data active means activity change above about 30%, passing the limit was not always enough;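 further: controls were the assay level and a saturating level of protein; the project sought stronger binding though the title names inhibitors; some compounds called inactive have numbers as strong as hits; positive values seem to mean higher polarization but the record does not say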
# FGF22 binding: binders of human FGF22 protein, primary screen, FGF22 synaptogenesis inhibitor project, biophysical, thermal shift, single point | Fibroblast growth factor 22 (Homo sapiens), Q9HCT0 | recombinant FGF22 thermal shift, SYPRO orange fluorescence; percent of sucrose octasulfate shift, DMSO zero | calls only at 9.99 µM | 340,000 tested, 1.5% active;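 active means melting point raised past a set limit in the mean and every replicate; three in four hits are not shown here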
# Target sequence (Q9HCT0 whole entry, looked up): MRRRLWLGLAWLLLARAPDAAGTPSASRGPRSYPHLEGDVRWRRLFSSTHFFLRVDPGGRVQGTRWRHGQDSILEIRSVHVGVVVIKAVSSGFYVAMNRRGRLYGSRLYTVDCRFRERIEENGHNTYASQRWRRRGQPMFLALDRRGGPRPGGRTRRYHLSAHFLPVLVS
# Vif A3G: inhibitors of Vif binding to APOBEC3G peptide, primary screen, biochemical, TR-FRET, GST-Vif 1-94, biotin-A3G peptide, dose response retest (AID 1117319). TR-FRET GST-Vif / biotin-A3G peptide binding; higher % means a stronger effect; test concentration not given here; strong numbers were not always called active. 260,000 tested, 0.57% active. Virion infectivity factor (Human immunodeficiency virus type 1 group M subtype B (isolate …. one-dose inhibition, %; IC50 in µM for titrated hits;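 active means above the screen mean plus three standard deviations and confirmed in dose response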;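 further: Vif residues 1-94 fused to GST binding biotinylated APOBEC3G peptide 110-148; 0% = full assay without inhibitor and 100% = GST in place of GST-Vif; retest series ran down from 100 µM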
# AF4-AF9 inh: inhibitors of AF4 peptide binding to AF9, primary screen, biochemical, AlphaScreen, biotin-AF4 peptide, FLAG-AF9, single point; Protein AF-9 (Homo sapiens), P42568; inhibition, % at 10 µM; 350,000 tested, 0.47% active; AID 651704, 2012;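 active means every replicate reaching a set inhibition limit, whatever the replicate mean, cut at about 25% in these data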;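 further: 0% = plate neutral control median and 100% = total signal loss; the record names both 10 and 1 µM as test concentration; the first replicate is given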
# Target sequence (P42568 whole entry, looked up): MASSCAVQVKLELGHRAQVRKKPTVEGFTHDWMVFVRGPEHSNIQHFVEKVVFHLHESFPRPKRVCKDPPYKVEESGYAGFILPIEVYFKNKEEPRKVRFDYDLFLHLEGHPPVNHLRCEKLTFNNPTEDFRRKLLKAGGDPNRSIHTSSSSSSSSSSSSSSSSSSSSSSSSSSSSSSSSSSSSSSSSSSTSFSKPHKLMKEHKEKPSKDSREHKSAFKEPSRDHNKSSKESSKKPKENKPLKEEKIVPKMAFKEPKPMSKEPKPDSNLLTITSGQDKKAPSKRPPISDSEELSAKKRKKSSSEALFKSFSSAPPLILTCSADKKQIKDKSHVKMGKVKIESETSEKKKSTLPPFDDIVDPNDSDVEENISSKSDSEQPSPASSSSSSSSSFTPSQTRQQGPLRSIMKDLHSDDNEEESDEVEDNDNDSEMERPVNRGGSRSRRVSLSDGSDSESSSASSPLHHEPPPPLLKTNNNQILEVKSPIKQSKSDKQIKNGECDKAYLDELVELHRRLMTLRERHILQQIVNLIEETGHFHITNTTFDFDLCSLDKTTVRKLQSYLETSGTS
# Ecoli growth: E. coli growth inhibition, primary screen, OD600 | 330,000 tested, 0.21% active | AID 1053175, 2014 | OD600 absorbance (no concentration beside the values) | Escherichia coli growth, 23 h; stronger effect = lower value;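 active means OD600 absorbance below the run mean of sample wells minus 3.6 SD, in any replicate, cut at about 0.56 in these data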;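 further: stock transfer was 300 nL into about 60 µL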
# rRNA inh HTS: reduced GFP signal of wild-type E. coli, primary screen, bacterial rRNA inhibitor project, GFP/RFP fluorescence, OD600, single point. E. coli WT GFP vs humanized-ribosome RFP mutants, 24 h; stronger effect = lower value; DMSO median 0, no signal -100. GFP signal change (wild-type ribosome), % (concentration not given with the values). 350,000 tested, 1.6% active. AID 720706, 2013;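 active means significant combined selectivity score with lowered wild-type GFP, culture density cut under 30%, mutant RFP and density less affected; inactive means any of these conditions unmet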; further: one replicate is shown; some compounds called inactive have numbers as strong as hits
# ALR inh: inhibitors of human ALR sulfhydryl oxidase, primary screen, biochemical, H2O2 detection, HRP-luminol luminescence, single point | FAD-linked sulfhydryl oxidase ALR (Homo sapiens), P55789 | purified ALR, DTT oxidation | inhibition, % (no concentration beside the values) | 290,000 tested, 3.8% active | AID 485317, 2010;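 active means mean and each replicate at 75% or more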;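 further: stock transfer was 7.5 nL into about 7.5 µL; 0% = neutral wells and 100% = wells with inactivated enzyme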
# Target sequence (P55789 whole entry, looked up): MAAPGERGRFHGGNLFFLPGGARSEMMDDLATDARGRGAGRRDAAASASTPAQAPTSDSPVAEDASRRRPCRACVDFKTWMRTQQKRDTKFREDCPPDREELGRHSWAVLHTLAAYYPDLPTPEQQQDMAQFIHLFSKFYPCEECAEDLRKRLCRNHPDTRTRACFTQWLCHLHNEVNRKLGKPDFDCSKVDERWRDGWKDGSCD
# rRNA inh HTS OD600: recorded beside rRNA inh HTS, whose call it bears; OD600 change, %; measured here: OD600 growth;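 optical density of the mix in the first replicate; 0 = DMSO median and -100 = no signal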
# rRNA inh HTS RFP: second read-out of rRNA inh HTS, no call of its own (marks repeat the call); RFP signal change, %; measured here: RFP humanized mutant strains;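 first replicate; 0 = DMSO median and -100 = no signal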
# An asterisk follows results filed as active; i = inactive; / = no result given; & = joins results of further samples. This is a subset; rates above refer to the full screens.
Structure	HNF4A DNA FP	FGF22 binding	Vif A3G	AF4-AF9 inh	Ecoli growth	rRNA inh HTS	rRNA inh HTS OD600	rRNA inh HTS RFP	ALR inh
CC(=O)Nc1ccc(-c2ccnc3c2CC(C(=O)NCc2ccccc2)O3)cc1 (centres undefined)	2.9	i	/	-0.9	/	1	-3	-1.7	/
Fc1ccc(Nc2cccc3nccnc23)cc1	3.0	/	-1%	/	0.65	/	/	/	55
O=C(O)COc1ccccc1/C=N/NC(=O)Cc1ccccc1	1.6	i	/	1.2	/	-2	6	-1.0	-2
CC(C)OCCCNC(=O)C(=O)NCCCOC(C)C	1.1	/	2%	/	0.67	/	/	/	0
O=C(NCc1ccc(Cl)cc1)c1cnn2ccccc12	-2.1	i	2%	-14	0.67	3	2	0.9	/
C[C@H]1CCCCO[C@H](CN(C)Cc2ccc(C(=O)O)cc2)[C@@H](C)CN([C@@H](C)CO)C(=O)c2cc(NS(=O)(=O)c3cccs3)ccc2O1	/	i	/	-0.5	/	3	8	0.0	/
COc1cccc(O[C@@H]2O[C@@H]3COC(C)(C)O[C@H]3[C@H](O)[C@H]2NC(C)=O)c1	-4.4	/	23%	/	0.71	/	/	/	/
Cc1cccc(-n2nc(C)cc2N)c1	-0.5	/	7%	/	0.72	/	/	/	6
O=C(C[C@@H]1CC[C@@H]2[C@H](COC[C@H](O)CN2Cc2ccccc2F)O1)NCc1ccccc1F	/	i	/	0.8	/	1	4	2.2	/
Cc1cc(=O)oc(C)c1C(=O)NCc1ccccc1	0.8	/	-1%	/	0.7	/	/	/	-1
C[C@H](NC(=O)c1nc[nH]c1C(=O)NCC(=O)OC(C)(C)C)c1ccccc1	-0.8	i	/	1.9	0.79	-8	-9	16	7
O=C(CSc1ccccn1)NC1CCCc2c1cnn2-c1ccccc1F (centres undefined)	2.8	i	/	-1.6	/	-1	-8	2.6	/
COc1ccc(CNC(=O)C/C(C)=N/NC(=O)c2ccc([N+](=O)[O-])cc2Cl)cc1	-5.0	i	/	-1.1	/	13	4	-1.8	4
Cn1c(=O)c2c(ncn2CC(=O)OCC(=O)NCc2ccc(Cl)cc2)n(C)c1=O	0.6	/	/	/	0.69	/	/	/	2
O=c1cc(N2CCN(c3ccccc3)CC2)[nH]c(=O)n1Cc1ccc(F)cc1	1.6	i	-4%	-17	0.77	0	9	5.6	1
CCN(Cc1ccccc1)S(=O)(=O)c1ccc(C(=O)Nc2nnc(C)o2)cc1	-2.6	i	/	0.1	0.75	0	-3	-3.4	-4
COc1cc(/C=N/NC(=O)c2ccncc2)ccc1OCc1cnc(Cl)s1	-2.3	i	23%	-0.9	/	19	19	-1.9	-5
CC1CCN(C(=O)C(C)NCc2ccc(F)cc2)CC1 (centres undefined)	3.5	i	0%	-25	/	0	6	-3.1	4
COc1ccccc1CN1[C@@H](CO)[C@@H]2c3ccccc3N(C(=O)c3cccnc3)C[C@@H]21	/	i	/	44*	/	-2	1	-0.6	/
CCCCCCCC(=O)NC1=NC(=O)C(C)(C)S1	-2.6	i	18%	-1.3	0.66	7	6	-0.3	-11
COc1ccc2[nH]cc(C(=O)CN3CCC(C)CC3)c2c1	-5.3	/	2%	/	0.71	/	/	/	-16
C[C@@H]1COC(=O)[C@H](CC(=O)OC(C)(C)C)C/C=C\C[C@@H](CC(=O)N(CCO)Cc2ccccc2)C(=O)N1	0.9	i	/	/	/	2	4	-1.0	3
O=C(Nc1cccc(C(=O)O)c1)/C(=C/c1cccc([N+](=O)[O-])c1)NC(=O)c1cccc(Br)c1	2.3	i	/	2.1	0.68	12	3	0.4	3
COc1cccc(C#Cc2cnc3c(c2)C(=O)N([C@H](C)CO)C[C@@H](C)[C@H](CN(C)C(=O)C2CCCCC2)O3)c1	/	i	/	0.5	/	-3	-2	2.1	/
CCCCNC(=O)C[C@@H]1C[C@@]2(C(=O)OC)CCCCC=C2N(Cc2ccco2)C1=O	-0.6	i	/	-7.3	/	/	/	/	/
Cc1ccc(S(=O)(=O)c2nc(C)oc2N2CCOCC2)cc1	1.9	i	2%	4.8	0.65	9	10	0.3	-12
COc1cccc(C(=O)Oc2c(CN3CCOCC3)cc(Cl)c3cccnc23)c1	2.7	/	17%	/	0.66	/	/	/	/
COn1c(-c2ccccc2)nc2c1CCc1nonc1-2	4.9	/	6%	/	0.72	/	/	/	-2
CC(Oc1ccc2c(c1)oc(=O)c1ccccc12)C(=O)NCCN1CCOCC1 (centres undefined)	7.2	i	/	-0.3	0.69	2	2	1.8	-2
CC(Sc1nc2c(c(=O)n(C)c(=O)n2C)n1Cc1cc2c(cc1Cl)OCO2)C(=O)O (centres undefined)	0.1	/	3%	/	0.67	/	/	/	4

# Laid out differently: results already given.
SMILES: CC1CCN(C(=O)C(C)NCc2ccc(F)cc2)CC1 (centres undefined)
  HNF4A DNA FP = 3.5	FGF22 binding = i	Vif A3G = 0%	AF4-AF9 inh = -25	Ecoli growth = /	rRNA inh HTS = 0	rRNA inh HTS OD600 = 6	rRNA inh HTS RFP = -3.1	ALR inh = 4
SMILES: COc1ccccc1CN1[C@@H](CO)[C@@H]2c3ccccc3N(C(=O)c3cccnc3)C[C@@H]21
  HNF4A DNA FP = /	FGF22 binding = i	Vif A3G = /	AF4-AF9 inh = 44*	Ecoli growth = /	rRNA inh HTS = -2	rRNA inh HTS OD600 = 1	rRNA inh HTS RFP = -0.6	ALR inh = /

# (cont.)
Structure	HNF4A DNA FP	FGF22 binding	Vif A3G	AF4-AF9 inh	Ecoli growth	rRNA inh HTS	rRNA inh HTS OD600	rRNA inh HTS RFP	ALR inh
Cn1nnnc1SCc1nc2scc(-c3ccccc3)c2c(=O)[nH]1	4.4	i	-5%	-5.8	0.7	-14	-15	0.7	-11
CCCn1c(SCC(=O)N2CCN(C(C)=O)CC2)nc2sc3c(c2c1=O)CCC3	0.6	i	/	-2.6	0.69	0	-12	3.1	5
CCOC(=O)[C@]12CCCC=C1N(Cc1cccc3ccccc13)C(=O)[C@H](CC(=O)NCc1ccccc1)C2	6.6	i	/	-4.2	/	/	/	/	/
CCC(=O)N1C[C@H]2[C@@H](c3ccccc31)[C@H](CO)N2Cc1cc(F)ccc1F	/	i	/	4.2	/	0	1	1.2	/
NC(=O)COc1ccc(NC(=O)CC23CC4CC(CC(C4)C2)C3)cc1	0.3	i	/	-22	0.67	-4	1	0.5	/
CCOC(=O)C(C(=O)Nc1cccc(C)n1)C1CCCCC1 (centres undefined)	-1.1	/	0%	/	0.69	/	/	/	-4
CCN(CC(=O)Nc1ccc(NC(C)=O)cc1)C(=O)CSc1nnc(-c2ccco2)n1CC	-0.3	i	3%	-1.1	0.7	10	4	0.8	-6
COc1cccc(C(O)c2nc(-c3cccc(F)c3)cs2)c1 (centres undefined)	-0.1	i	/	-2.5	/	-11	-43	-2.9	/
COc1cc2ccc(C(C)=O)cc2cc1OC	-2.3	i	/	-4.2	/	-11	-9	-0.1	/
CC(/C=N/NC(=O)Cn1nnc(N)n1)=C\c1ccc(C(C)C)cc1	-1.8	i	13%	5.2	/	8	6	1.0	/
CC1=C(C(=O)N(C)C)CC(CC(=O)NC2CCCC2)C(=O)N1Cc1ccccc1 (centres undefined)	-0.4	i	5%	-0.3	/	7	15	-0.1	/
COCC(=O)N(C)C[C@@H]1Oc2cc(C#CCN(C)C)ccc2S(=O)(=O)N([C@H](C)CO)C[C@H]1C	/	i	/	-2.2	/	5	14	-1.7	/
COc1cccc(C(=O)N(Cc2cc3cc(C)ccc3[nH]c2=O)C(C)C)c1	0.8	/	5%	/	0.71	/	/	/	-4
COc1ccc(C2CC(=O)c3c(C)nc(N4CCN(c5ccccc5)CC4)nc3C2)cc1 (centres undefined)	-2.2	/	5%	/	0.75	/	/	/	2
COC(=O)c1ccc(C)c(NS(=O)(=O)c2cn(C)nc2C)c1	3.2	i	7%	-0.9	0.71	1	9	-2.0	0
CC1(C)CC(=O)c2c(O)cc(OCC(=O)NCCc3ccc(S(N)(=O)=O)cc3)cc2O1	3.4	i	/	-1.2	0.71	-7	8	0.8	24
COCC(=O)N(C)C[C@@H]1Oc2cc(-c3ccc(C#N)cc3)ccc2S(=O)(=O)N([C@@H](C)CO)C[C@@H]1C	/	i	/	-1.2	/	4	11	-1.6	/
CNc1snc(C)c1C(=O)OCC(=O)N(C)c1ccccc1	1.2	i	0%	-1.4	/	8	1	0.9	0
COc1cc(=O)n(C)c2cc(N(C)C)ccc12	3.2	/	18%	/	0.72	/	/	/	43
Cc1cc(C)cc(NC(=O)CN2CCN(C(=O)c3cccs3)CC2)c1	2.0	i	2%	2.1	0.66	-3	-14	-2.6	-3
O=c1[nH]cnc(CN2CCCCC2)c1O	-2.6	i	/	-0.1	/	12	9	-0.1	/
O=S(=O)(Cc1ccccc1)N1CCCCCC1	3.4	/	-2%	/	0.65	/	/	/	-14
CCN(Cc1ccncc1)S(=O)(=O)c1ccc(C(C)=O)cc1	-0.6	/	4%	/	0.74	/	/	/	90*
COC(=O)[C@@]12C[C@@H](CC(=O)NCc3cccc4ccccc34)C(=O)N(Cc3ccc4c(c3)OCO4)C1=CCC(C)(C)C2	11	i	/	-0.4	/	5	8	-12	/
COc1ccc(S(=O)(=O)N2CCC(C(N)=O)CC2)cc1C(=O)N1CCCCCC1	-1.1	i	/	1.2	0.7	7	11	-2.2	/
Cc1[nH]c(-c2ccccn2)nc(=S)c1Cl	2.1	i	5%	-4.6	/	-2	-8	-2.6	50
CSc1ccc(COC(=O)CCS(=O)(=O)c2ccc(C)cc2)cc1	2.6	i	-4%	-1.9	0.69	4	19	-0.4	0
COc1ccccc1S(=O)(=O)N[C@@H]1C=C[C@H](CC(=O)N2CCOCC2)O[C@H]1CO	/	i	/	-3.8	/	2	5	-0.1	/
COc1ccc2ccccc2c1CNC(=O)CC1C(=O)NCCN1CC(C)C (centres undefined)	15	i	-2%	6.5	0.7	1	3	2.7	-20
NC(=O)CC(NC(=O)Cc1ccc(Br)cc1)c1ccc(NCCN2CCCC2)c([N+](=O)[O-])c1 (centres undefined)	1.8	i	/	2.8	0.65	-2	15	2.0	0
CCOC(=O)C1=C(C)NC(C)=C(C(=O)OCC)C1C(=O)OC1CCOC1=O (centres undefined)	4.1&-2.7	i	-4%&12%	-6.7	0.68&0.75	4	17	-1.4	1
CCCCC(=O)Oc1c(S(=O)(=O)c2ccc(C)cc2)c(C)nn1C(C)(C)C	0.8	i	-8%	-5.0	0.69	3	-8	0.3	14
COc1cccc(Nc2nnc(SCC(=O)N(CC(C)C)CC(C)C)s2)c1	-2.0	/	-2%	/	0.71	/	/	/	-13
Cc1ccc(S(=O)(=O)N2CCCCC2CCNC(=O)C(=O)NCc2ccco2)cc1 (centres undefined)	0.8	i	-10%	5.8	0.72	1	-1	0.4	/
CCCNC(=O)[C@@H]1[C@@H](CO)[C@@H]2Cn3c(ccc(-c4ccncc4)c3=O)[C@H]1N2CC1CC1	/	i	/	-0.9	/	0	3	-2.6	/
CCOc1ccc(C(=O)Nc2nc3ccccc3[nH]2)cc1OCC	-1.8	i	-5%	6.4	0.67	-53	-79	-14	3
